Screens deposited in PubChem by National Center for Advancing Translational Sciences (NCATS).
miR-21 reporter – raises the signal of a miR-21 reporter. HeLa miR-21 FLuc reporter, luciferase, 48 h. Potency, µM (series often up to 38.3 µM), for inactives: at the top dose reporter change, positive = more light. 340,000 tested, under 10 active; active = well fitted rising curve with a large enough effect; inconclusive = small, poorly fitted or top-dose-only effect; inactive = no such curve, though single readings can be large or run the other way;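 further: % of control where 0% means no effect; miR-21 action dims this reporter so a rising signal means less miR-21 action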
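HeLa cells stably expressing CMV-driven firefly luciferase with a downstream miR-21 binding sequence, endogenously expressing miR-21, were treated with titrations (up to about 40uM final) for 48 hours at 37 degree Celsius. Luciferase luminescence was read after lysis.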
GLA inh pH 4.5 – inhibitors of human alpha-galactosidase A at pH 4.5; purified enzyme, 4-MU-alpha-Gal fluorescence, pH 4.5; AID 1467; 230,000 tested, under 10 active; activity change, negative = inhibition, % at 105 µM; inconclusive = small, poorly fitted or top-dose-only inhibition, or a rising curve; inactive = flat fitted curve, though single readings scatter; no compound was filed as active;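 further: 0% = full activity with enzyme and -100% = basal without enzyme; dose as in the result columns while the protocol names 77 µM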
Target sequence (P06280 whole entry, looked up): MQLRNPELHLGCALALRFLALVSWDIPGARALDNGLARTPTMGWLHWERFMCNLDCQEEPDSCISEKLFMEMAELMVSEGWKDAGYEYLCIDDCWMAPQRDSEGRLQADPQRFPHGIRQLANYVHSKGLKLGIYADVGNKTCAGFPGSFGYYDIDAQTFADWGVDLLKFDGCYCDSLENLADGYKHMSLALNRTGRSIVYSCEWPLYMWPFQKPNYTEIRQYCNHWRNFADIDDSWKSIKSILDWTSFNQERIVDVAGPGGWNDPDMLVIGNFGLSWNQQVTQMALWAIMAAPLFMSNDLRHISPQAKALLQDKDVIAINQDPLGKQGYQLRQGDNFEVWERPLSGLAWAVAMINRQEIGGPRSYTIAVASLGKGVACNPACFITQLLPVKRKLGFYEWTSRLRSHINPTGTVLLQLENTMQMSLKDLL
Rango-impB inh – Rango-importin beta binding inhibition | Q14974 | Rango CFP/YFP FRET sensor + importin beta, 45 min | Potency, µM (doses to about 92.2 µM), for inactives: top-dose inhibition of complex formation | 0.031% of 340,000 active | AID 540263; active = rising FRET ratio curve, often small or poorly fitted; inconclusive = mostly compound fluorescence or quenching in the first reads; inactive = flat curves in all reads;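 further: potency means the concentration at half of the fitted maximal effect; 0% = DMSO wells and 100% = buffer wells lacking importin beta; nearly all actives have a fitted effect of over 15% in size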
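FRET biosensor (snurportin 1 IBB flanked by EYFP and cerulean), 50 nM, with compound 5 min, then 0.125 microM importin beta in PBS, 1 mM DTT, 0.02% Tween-20, 0.1% BSA. CFP/YFP ratio read after 45 min at room temperature; pre-read flags interference.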
Rango dissoc inh – inhibitors of RanGTP-induced Rango-importin beta complex dissociation. Biochemical FRET Rango-importin beta, RanGTP-induced dissociation. Potency, µM (highest dose often 46.1 µM), for inactives: top-dose activity change, negative = inhibition. 0.071% of 340,000 active. O95149+P62826; active means falling FRET ratio curve, often poorly fitted, with flat reads before Ran was added; inconclusive means other falling curves, or compound fluorescence or quenching; inactive means flat or rising ratio curve;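 further: potency means the concentration at half of the fitted maximal effect; % of control where 0% means no effect; nearly all actives have a fitted effect of over 45% in size; -100% = wells without RanGTP and RCC1; the record marks most hits as doubtful in a second field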
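Recombinant Rango FRET biosensor (EYFP–snurportin 1 IBB–cerulean CFP10) at 0.1 uM premixed with 0.25 uM importin beta in PBS, 1 mM DTT, 0.02% Tween-20, 0.1% BSA. Compound added 5 min; RanGTP-RCC1 (0.6 uM Ran, 2 mM GTP, 0.2 uM RCC1) then triggers release, read at 45 min.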
Active calls of the source: *; ? = inconclusive; . = not tested or not shown. Some of the compounds tested; rates above refer to the full screens.

Compound	miR-21 reporter	GLA inh pH 4.5	Rango-impB inh	Rango dissoc inh
COc1ccccc1-c1cc(C(=O)NC(C)c2ccccc2)no1 (stereo not given)	-20%	7	-2.5%	-2%
CCCCn1c(N)c(N(CC)C(=O)COc2ccc(C#N)cc2)c(=O)[nH]c1=O	.	.	-0.8%	-17%
Cc1ccc(OCc2cc(C(=O)N3CCc4sccc4C3)no2)cc1C	-4%	.	3.9%	4%
CCCCn1c(N)c(N(CCOC)C(=O)CN2c3ccccc3CC2C)c(=O)[nH]c1=O (stereo not given)	3%	12	?	-24%
COc1ccccc1NC(=O)C1=C(C)NC(=O)NC1c1cccc(OC)c1OC (stereo not given)	0%	5	3.5%	-3%
COc1cc(CN(C)c2ncnc3sccc23)ccc1OC(F)F	10%	.	?	-4%
CCOC(=O)C1=C(CC)Nc2ccccc2N=C1NC(=O)c1ccc(C)c(S(=O)(=O)N2CCOCC2)c1	.	.	-1.9%	-2%
COc1ccc(C(c2nnnn2C2CCCC2)N2CCC(C)CC2)c(OC)c1 (stereo not given)	-5%	-7	0.1%	8%
O=C(CN(Cc1ccccc1)S(=O)(=O)c1ccccc1)N/N=C/c1ccccc1[N+](=O)[O-]	12%	-11	1.7%	-13%
O=C(NCC1CCCO1)c1c(O)nc2sccn2c1=O (stereo not given)	.	.	-1.7%	8%
CCCn1c(N)c(C(=O)CSc2nnc3n2CCCCC3)c(=O)n(C)c1=O	.	.	3.1%	7%
CCN1C(=O)[C@H]2[C@@H](c3ccc(-c4cccc(Cl)c4)c(OC)c3)N3CCC[C@@]3(C(=O)OC)[C@H]2C1=O	.	.	-2.6%	-11%

More records follow.
Compound	miR-21 reporter	GLA inh pH 4.5	Rango-impB inh	Rango dissoc inh
Cc1ccc(-c2nnc(CSc3nc(C(C)C)nc4sc(C)c(C)c34)o2)cc1	-3%	-3	-0.1%	-1%
C/C(=N\Nc1ncc(Cl)cc1Cl)c1cccs1	-56%	-8	.	.
O=C(N/N=C/C(Cl)=C/c1ccc([N+](=O)[O-])cc1)C(=O)Nc1cccc(C(=O)O)c1	2%	-6	-0.2%	-2%
Cc1cn(C(=O)c2cccc(Br)c2)c(C)n1	-2%	-2	-2.7%	-11%
O=C(NNC(=O)c1ccc(Br)s1)c1cccc(Cl)c1	.	.	-0.4%	29%
CCOc1ccc2nc(SCC#N)c(C#N)cc2c1	-20%	-1	?	?
COC(=O)c1c(NC(=O)c2ccc(OC(C)C)cc2)sc2c1CC(C)(C)NC2(C)C	-4%	?	-0.2%	-1%
COc1ccc(C2=NOC(C(=O)NCc3cccnc3)C2)cc1 (stereo not given)	-2%	.	-2.4%	13%
COc1ccccc1N1CCN(CC(O)COc2ccc(C)c(C)c2)CC1 (stereo not given)	-4%	.	2.4%	2%
CC(C)C1CC(C(F)(F)F)n2nc(C(=O)O)cc2N1 (stereo not given)	-2%	10	-1.2%	-2%
COc1cc(C(=O)NCC(=O)NCCN2C(=O)S/C(=C\c3ccc4c(c3)OCO4)C2=O)cc(OC)c1OC	.	.	-2.5%	-5%
COc1ccc(-c2noc(CCC(=O)N3CCN(c4cccc(C)c4)CC3)n2)cc1	.	.	?	18%

Next part:
Compound	miR-21 reporter	GLA inh pH 4.5	Rango-impB inh	Rango dissoc inh
COc1cccc(CNC(=O)CCC2CCCN(C(=O)c3ccc(F)c(Cl)c3)C2)c1 (stereo not given)	2%	.	0.1%	-3%
CC1CCN(C(=O)CCNC(=O)c2ccccc2Cl)CC1	-5%	.	-0.6%	0%
Oc1ccccc1CN1CCN(C(c2ccccc2)c2ccccc2)CC1	4%	.	0.6%	-5%
Cc1ccccc1-c1nnc(-c2ccc(Br)cc2)o1	-37%	0	-0.8%	9%
CCN(CC)C(=O)c1ccc(CS(=O)(=O)c2ccc(OC)cc2)o1	1%	-3	-0.2%	15%
Cc1cc(Cl)ccc1C(=O)C1CCCN(C(=O)CCN2CCCO2)C1 (stereo not given)	-2%	-3	-1.9%	1%
Cc1nn(CC(=O)Nc2nccs2)c(C)c1[N+](=O)[O-]	-3%	2	-5.8%	-22%
CCCN(C(=O)/C=C/c1ccc(S(=O)(=O)N(CC)CC)cc1)C1CCS(=O)(=O)C1 (stereo not given)	.	.	-0.2%	-3%
CCN(CC)S(=O)(=O)c1ccc(NC(=O)Cn2c(=O)sc3ccccc32)cc1	10%	-11	-1.1%	4%
CCOc1ccc(C(=O)Nc2nc(C)c(C(=O)OC)s2)cc1	-55%	-7	-0.9%	-7%
CC(C)C[C@H](NC(=O)N1CCn2c1nc1ccccc12)C(=O)N1CCCCC1	2%	.	-1.4%	12%
Cc1ccc(-c2nnc(SCC(=O)Nc3sc(C)c(C)c3C#N)n2C)cc1	2%	1	2.6%	-18%

The results go on:
Compound	miR-21 reporter	GLA inh pH 4.5	Rango-impB inh	Rango dissoc inh
CCn1nc(C)c(/C=N/NC(=O)Cc2ccc(Cl)cc2)c1C	-60%	-4	-3.0%	-11%
COc1cccc(C(=O)Nc2cccc(-c3nc4ncccc4o3)c2C)c1	-2%	0	-1.4%	9%
Nc1nonc1-c1nc2ccccc2n1CC(=O)N/N=C\c1ccc(-c2ccc(Cl)cc2)o1	-7%	-2	0.5%	-5%
CC(C)CC(=O)NC(=S)Nc1cc(C(F)(F)F)ccc1N1CCOCC1	-8%	-8	-1.8%	5%
O=C(NCC1CCCO1)C1CCN(C2CCN(C(=O)CC3CCCC3)CC2)CC1 (stereo not given)	2%	3	-2.0%	-5%
CC1CCCC(NC(=O)COc2ncnc3ccccc23)C1C (stereo not given)	.	.	-2.9%	-9%
O=C(CCNC(=O)C1CCN(S(=O)(=O)c2ccccc2)CC1)NCc1ccc(Cl)cc1	0%	.	?	2%
COc1cc(-c2nnc(CSc3nc4ccccc4s3)o2)cc(OC)c1OC	-5%	2	.	.
C=CCNC(=O)CCC(=O)NNc1nc2ccccc2c2nc(-c3ccccc3)nn12	-1%	-5	2.5%	-9%
O=C(c1nc2ncccn2n1)N1CCN(c2ccc(F)cc2)CC1	-5%	-3	-1.0%	10%
CCc1ccc(NC(=O)c2ccccc2Br)cc1	-65%	-4	0.7%	-3%
N#C/C(=C\c1sc(N2CCOCC2)nc1-c1ccccc1)C(=O)Nc1cccc2ccccc12	-2%	-6	.	.

Rewritten field by field: part of the list above
COc1cc(-c2nnc(CSc3nc4ccccc4s3)o2)cc(OC)c1OC
  miR-21 reporter: -5%
  GLA inh pH 4.5: 2
  Rango-impB inh: .
  Rango dissoc inh: .
C=CCNC(=O)CCC(=O)NNc1nc2ccccc2c2nc(-c3ccccc3)nn12
  miR-21 reporter: -1%
  GLA inh pH 4.5: -5
  Rango-impB inh: 2.5%
  Rango dissoc inh: -9%
O=C(c1nc2ncccn2n1)N1CCN(c2ccc(F)cc2)CC1
  miR-21 reporter: -5%
  GLA inh pH 4.5: -3
  Rango-impB inh: -1.0%
  Rango dissoc inh: 10%
CCc1ccc(NC(=O)c2ccccc2Br)cc1
  miR-21 reporter: -65%
  GLA inh pH 4.5: -4
  Rango-impB inh: 0.7%
  Rango dissoc inh: -3%

Further records.
Compound	miR-21 reporter	GLA inh pH 4.5	Rango-impB inh	Rango dissoc inh
Cc1ccccc1OCCC(=O)N(CC(C)C)c1c(N)n(Cc2ccccc2)c(=O)[nH]c1=O	.	.	0.2%	26%
CN(C(=O)COn1nnc2ccc(S(=O)(=O)N3CCOCC3)cc21)c1ccccc1	.	.	-2.0%	-2%
NC(=O)Nc1ccc(Oc2ncc(C(F)(F)F)cc2Cl)cc1	-3%	-8	-0.1%	-5%
CCOC(=O)c1c(-c2ccc(C)o2)csc1NC(=S)NC(=O)c1ccc(F)cc1	-10%	-18	7.5%	6%
CC(C)C1C2=C(CC(C)(C)CC2=O)ON1c1ccccc1 (stereo not given)	-4%	0	-5.4%	6%
CCCCCn1c(CN2CCCCC2C)nc2c1c(=O)n(C)c(=O)n2C (stereo not given)	1%	-6	-3.4%	1%
O=C(c1ccc(Br)o1)N1CCN(c2ccccn2)CC1	-8%	-10	0.3%	15%
O=C(Nn1nnnc1Nc1ccccc1)C12CC3CC(CC(C3)C1)C2	3%	-12	2.7%	7%
Cn1c(=O)c2c(nc(N3CCCC3)n2CC(O)CO)n(C)c1=O (stereo not given)	0%	-2	-3.1%	1%
Cc1cc(C)n(CC(C)(O)c2ccccc2)n1 (stereo not given)	.	.	0.1%	5%
O=[N+]([O-])c1ccc(S(=O)(=O)NCC2CC3CCC2C3)cc1 (stereo not given)	-3%	.	-0.6%	22%
NS(=O)(=O)c1ccc(NC(=S)NC(=O)c2cccnc2)cc1	1%	0	11%	-13%

(further entries)
Compound	miR-21 reporter	GLA inh pH 4.5	Rango-impB inh	Rango dissoc inh
Cc1cc(/C=C2\C(=N)N3C(SCc4ccccc4)=NSC3=NC2=O)c(C)n1Cc1ccccc1	-2%	-8	-2.0%	-9%
N#CC(C#N)=Cc1cnc(N2CCN(c3ccccc3)CC2)s1	-10%	.	-0.2%	-12%
Cn1c(=O)c2nc(NCc3ccccc3)sc2n(C)c1=O	.	.	0.8%	15%
CCc1cc(=O)[nH]c(-n2[nH]c(-c3ccccc3)cc2=O)n1	-1%	-5	3.4%	-1%
O=C(/C=C/c1cccs1)Nc1ccncc1	-53%	-8	-0.4%	16%
CCCCNC(=O)Nc1cc(C(=O)OC)ccc1C	-5%	-3	-3.4%	7%
Cc1nc(-c2cccc(NC(=O)C3CCCCC3)c2)cs1	-3%	4	1.4%	1%
Cc1ccc(C(=O)NC2CCN(CCCC(=O)c3ccc(F)cc3)CC2)cc1	-6%	.	-0.8%	0%
O=C(CSc1nc2sc3c(c2c(=O)n1-c1ccccc1)CCCC3)N/N=C/c1ccc(C(=O)O)cc1	-28%	.	-1.7%	-3%
Cc1cc2cc(CCNC(=O)C(C)C)c(=O)[nH]c2cc1C	.	.	4.5%	-15%
CCc1nnc(NC(=O)CSc2nnc(-c3ccccc3O)o2)s1	-37%	8	3.1%	-8%
COc1ccc(S(=O)(=O)N2CCCOC2CNC(=O)C(=O)NC2CCCC2)cc1 (stereo not given)	-1%	.	-0.3%	14%

The list continues.
Compound	miR-21 reporter	GLA inh pH 4.5	Rango-impB inh	Rango dissoc inh
Cc1ccc(Nc2nc(N)c([N+](=O)[O-])c(N3CCOCC3)n2)cc1	-18%	4	0.5%	22%
CN(Cc1ccccc1)C(=O)c1ccc(NC(=O)Cc2cccc(NC(=O)C3CCN(C(=O)C4CC4)CC3)c2)cc1	.	.	-1.0%	-13%
Cc1cc(C)nc(Nc2nc3ccccc3s2)n1	-38%	3	-0.5%	2%
CCCCCCNC(=O)C(C(=O)OCC)C1CCCCC1 (stereo not given)	-4%	6	-1.1%	-14%
CC(C)(C)C1CCc2c(sc3ncn(N)c(=N)c23)C1 (stereo not given)	8%	-16	9.5%	2%
CCN1CCN(C(=S)Nc2cc(S(=O)(=O)N(CC)CC)ccc2C)CC1	8%	6	2.9%	1%
COCc1cc(C)nc2sc(C(=O)NC3CCCCC3)c(N)c12	-26%	2	-0.6%	1%
CCCCC1CCC(/C(N)=N/O)CC1 (stereo not given)	4%	-1	3.9%	22%
O=C(Nc1ccnn1C1CCN(C(=O)Cc2ccccc2F)CC1)C1CC1	0%	.	0.5%	-3%
O=C(O)c1c(-c2ccccc2)c(-c2ccccc2)nc2ccccc12	0%	-1	-1.7%	-11%
CC(C)CC(NC(N)=O)C(=O)Nc1ccc2c(c1)OCO2 (stereo not given)	-16%	6	-2.6%	8%

Part of the list above, with each value named:
canonical_smiles: O=C(Nc1ccnn1C1CCN(C(=O)Cc2ccccc2F)CC1)C1CC1
  miR-21 reporter: 0%; GLA inh pH 4.5: .; Rango-impB inh: 0.5%; Rango dissoc inh: -3%

canonical_smiles: O=C(O)c1c(-c2ccccc2)c(-c2ccccc2)nc2ccccc12
  miR-21 reporter: 0%; GLA inh pH 4.5: -1; Rango-impB inh: -1.7%; Rango dissoc inh: -11%

canonical_smiles: CC(C)CC(NC(N)=O)C(=O)Nc1ccc2c(c1)OCO2 (stereo not given)
  miR-21 reporter: -16%; GLA inh pH 4.5: 6; Rango-impB inh: -2.6%; Rango dissoc inh: 8%
